Assay outcomes as filed in PubChem.
Marburg entry inh: blocks Marburg virus binding to or entry into cells; Marburg virus pseudotyped entry inhibition, cell reporter; control for the full effect not named in the record; about a third of the inactives were read at about 46 µM; Potency, µM (titrated, usually from 37.8 µM), for inactives: top-dose activity change, negative = inhibition, usual class: inhibitors; 300,000 tested, 1.8% active; active = well fitted inhibition curve with a large enough effect; inconclusive = small, poorly fitted or top-dose-only effect, or effect the other way; inactive = flat fitted curve, though single readings scatter; tested in HEK293 cells; about a fifth of its hits are not listed in these tables; also: % is scaled to controls: 0 for no effect and ±100 for the full control effect; luciferase read-out
RE007 growth inh: less growth of the S. pombe RE007 Vpr strain; S. pombe RE007 Vpr strain, BacTiter-Glo ATP luminescence, 24 h; control for the full effect not named in the record; Potency, µM (series often up to 92.2 µM), for inactives: top-dose activity change, negative = less growth; 360,000 tested, 0.21% active; AID 651644; active = well fitted falling curve with a large enough effect; inconclusive = small, poorly fitted or top-dose-only effect; inactive = no such curve, though single readings can be large or run the other way;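 also: % is scaled to controls: 0 for no effect and ±100 for the full control effect; nearly all actives have a fitted effect of over 50% in size; the assay follows cell death caused by Vpr and the record does not say whether a fall means rescue or toxicity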
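Fission yeast RE007 carrying one integrated HIV-1 vpr copy, seeded at OD 0.01 in PMG+AL medium with 23 nL pinned compound. Grown 24 h at 30 degrees; viability read by BacTiter-Glo luminescence after 5 min.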
LASV entry inh: inhibitors of Lassa virus binding or cell entry; 300,000 tested, 1.2% active; AID 540256; Potency, µM (titrated, usually from 37.9 µM), inactives show top-dose activity change, negative = inhibition, hits mostly inhibitors; Lassa virus pseudotype entry inhibition, cell reporter; control for the full effect not named in the record; active means well fitted inhibition curve with a large enough effect; inconclusive means small, poorly fitted or top-dose-only effect, or effect the other way; inactive means flat fitted curve, though single readings scatter; tested in HEK293 cells; also: % is scaled to controls: 0 for no effect and ±100 for the full control effect; nearly all actives have a fitted effect of over 50% in size; luciferase read-out
2A StopGo: lowers the luciferase signal of an FMDV 2A StopGo reporter | human cells with a luciferase reporter of 2A StopGo recoding; control for the full effect not named in the record | AID 1159524 | Potency, µM (top dose mostly 57.9 µM), inactives show at the top dose signal change, negative = less light | 410,000 tested, 1.2% active; active = well fitted falling curve with a large enough effect; inconclusive = small, poorly fitted or top-dose-only effect; inactive = no such curve, though single readings can be large or run the other way; tested in HEK293T cells; also: % is scaled to controls: 0 for no effect and ±100 for the full control effect; nearly all actives have a fitted effect of over 45% in size; luciferase light after 4 h
NS1 inh: inhibitors of influenza NS1 protein function | S. cerevisiae slowed by influenza A NS1, growth recovery by OD600 | Potency, µM (top dose mostly 46.1 µM), for the others: at the highest dose activity, positive = more growth | 270,000 tested, 0.4% active | AID 2326; active means well fitted rising curve with a large enough effect; inconclusive means small, poorly fitted or top-dose-only effect; inactive means no such curve, though single readings can be large or run the other way; also: nearly all actives have a fitted effect of over 50% in size
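S. cerevisiae expressing influenza A NS1, grown in glucose, washed, then diluted 1:100 into pH 6.0 -URA galactose medium with 23 nl compound. Growth recovery read as OD600; NS1-free strain serves as control.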
SARS PLP yeast: blocks SARS-CoV papain-like protease in a yeast assay; 330,000 tested, 0.19% active; Potency, µM (highest dose often 32.9 µM), for inactives: at the top dose activity, positive = growth rescue; S. cerevisiae expressing SARS-CoV PLpro, growth rescue; control for the full effect not named in the record; AID 485353; active means well fitted rising curve with a large enough effect; inconclusive means small, poorly fitted or top-dose-only effect; inactive means no such curve, though single readings can be large or run the other way; also: 0% is about no effect; nearly all actives have a fitted effect of over 55% in size; growth read by luminescence after 48 h
Cruzain noTriton: inhibitors of Trypanosoma cruzi cruzain without detergent; P25779; Potency, µM, without a hit: max response, negative = inhibition, most hits filed as inhibitors; purified cruzain, Z-FR-AMC fluorescence, no detergent; 200,000 tested, 2.3% active;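 also: plate controls were enzyme without inhibitor for no effect and buffer without enzyme for full effect; nearly all actives have a fitted effect of over 40% in size; top concentration of the series not given in the record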
Target sequence (P25779 123-467 limits assumed): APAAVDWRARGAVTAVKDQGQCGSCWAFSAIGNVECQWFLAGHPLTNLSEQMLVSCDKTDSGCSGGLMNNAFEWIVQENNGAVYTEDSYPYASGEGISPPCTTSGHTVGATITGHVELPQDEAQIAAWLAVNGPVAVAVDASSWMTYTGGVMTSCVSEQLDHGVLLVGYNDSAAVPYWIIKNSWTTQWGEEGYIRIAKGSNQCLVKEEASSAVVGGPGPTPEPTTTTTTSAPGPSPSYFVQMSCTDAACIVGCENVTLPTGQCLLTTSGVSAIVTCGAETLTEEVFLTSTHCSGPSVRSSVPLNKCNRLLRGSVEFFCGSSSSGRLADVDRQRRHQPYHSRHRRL
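Detergent-free condition (0.00005% Triton X-100) in acetate buffer pH 5.5 with DTT. 1.5 nM enzyme and compound were pre-mixed 15 min, then 2 uM Z-FR-AMC substrate added; reaction progress from fluorescence change between first and third reads (60 s).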
Cruzain Triton: blocks cruzain activity in presence of Triton detergent. P25779. purified cruzain, Z-FR-AMC fluorescence, 0.01% Triton. Potency, µM, for inactives: max response, negative = inhibition, hits mostly inhibitors. 200,000 tested, 0.43% active;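 also: plate controls were neutral wells for no effect and buffer without enzyme for full effect; nearly all actives have a fitted effect of over 40% in size; top concentration of the series not given in the record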
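Cysteine protease activity tested under reducing, mildly acidic conditions (100 mM sodium acetate pH 5.5, 5 mM DTT) plus 0.01% Triton X-100. Cruzain 1.5 nM; substrate Z-FR-AMC 2 uM; 15 min compound preincubation at room temperature.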
An asterisk follows results filed as active; ? = inconclusive; . = not tested or not shown; & = joins results of further samples; [ ] = dose if it differs, or a comment. Unless noted, calls follow the shape of the dose curve; as a rule, active = well fitted curve in the direction sought with a large enough effect; inconclusive = small, poorly fitted or top-dose-only effect, or another doubt; inactive = no such curve, though single readings can be large; an effect the other way counts as inactive or inconclusive. Potency is read from the fitted curve at half-maximal effect.

The line under a structure holds: Marburg entry inh | RE007 growth inh | LASV entry inh | 2A StopGo | NS1 inh | SARS PLP yeast | Cruzain noTriton | Cruzain Triton
O=C(NC12CC3CC(CC(C3)C1)C2)c1ccc(COc2ccc(Cl)cc2[N+](=O)[O-])o1
  ? | -8% | ? | ? | -15% | -8% | ? | -5.6%
CC(=O)Nc1ccc(C(=O)Nc2ccc3c(c2)N(C2CCCC2)C(=O)c2ccccc2S3)cc1
  . | . | 6.3µM* | ? | . | . | -29% | -4.2%
COc1ccc(CC(=O)Nc2cc(C)ccc2O)cc1OC
  . | -10% | . | -25% | -5% | -1% | . | .
CC(Sc1nnnn1C)C(=O)NC1CCCc2ccccc21 (centres undefined)
  17%[46.1 µM] | 3% | 15%[46.1 µM] | 19% | 8% | 0% | . | .
O=C(COC(=O)c1ccc(Br)o1)Nc1cccc(S(=O)(=O)N2CCCCCC2)c1
  ? | 9% | -11% | -4% | 17% | -7% | -8% | -3.6%
Cc1cc(OCc2nc(N)nc(N)c2-c2ccc(Cl)c(Cl)c2)ccc1[N+](=O)[O-]
  ? | 5% | 1µM* | 25µM* | 0% | . | -6% | -5.5%
CCOC(=O)c1c(C)oc2cc(Br)c(OC(C)C(=O)OCC)cc12 (centres undefined)
  ? | -7% | -20% | ? | -45% | -12% | ? | -7.2%
Cn1c(SCC(=O)N2CCN(c3cccc(Cl)c3)CC2)nnc1-c1ccncc1
  -26%&-26% | -12% | -18% | ? | -4% | 1% | 5% | 2.4%
CCOc1ccccc1NC(=O)CSc1c(C)cnc2c1c(=O)n(C)c(=O)n2C
  . | . | 27%[46.1 µM] | ? | . | . | -10% | 0.2%
COc1cccc(C(c2c(N)n(C)c(=O)n(C)c2=O)C(C)[N+](=O)[O-])c1 (centres undefined)
  . | -15% | . | -4% | -1% | -4% | . | .
OC(c1ccccc1)(c1ccccc1)C1CCN(C(=S)NC2CCCC2)CC1
  ? | -8% | ? | -22% | -1% | -1% | . | .
COc1cccc(NC(=O)Cn2c(=O)n(Cc3ccco3)c(=O)c3cc(OC)c(OC)cc32)c1
  -2%[46.1 µM] | . | -3%[46.1 µM] | -9% | . | . | ? | -1.8%
Cc1ccc(C23CC4CC(CC(C(N)=O)(C4)C2)C3)cc1
  21% | 5% | 9% | -11% | -8% | -3% | . | .
Nc1ccc2c(c1)C(=NO)c1cc([N+](=O)[O-])ccc1-2
  ? | 3% | 2% | -19% | . | . | . | .
COc1ccc(NC(=O)CN2C(=O)CSc3ccc(S(=O)(=O)N(C)C)cc32)cc1Cl
  . | . | 1%[46.1 µM] | -7% | . | . | ? | -2.6%
CCCCS(=O)(=O)Nc1ccc(N2CCOCC2)c(S(=O)(=O)N2CCOCC2)c1
  20% | -1% | 1% | 8% | -7% | -3% | . | .
O=C(CSc1nnnn1-c1ccccc1)Nc1nc(-c2ccccc2)ns1
  ? | -9% | 3% | -21% | 8% | 24% | -27% | -3.8%
CCc1ccc(-c2csc(NC(=O)c3cccnc3)n2)cc1
  ? | 0% | ? | ? | -4% | -11% | ? | -4.1%
Cc1nc(CCNS(=O)(=O)c2cccs2)cs1
  0% | 0% | 10% | 11% | -3% | 8% | 0% | 4.4%
Cc1cccc2c(=O)n3c(nc12)CCCCC3
  4% | -22% | ? | -10% | -48% | -2% | 1% | 4.8%

Entries of single compounds, looked up by structure. Values in the order: Marburg entry inh | RE007 growth inh | LASV entry inh | 2A StopGo | NS1 inh | SARS PLP yeast | Cruzain noTriton | Cruzain Triton
Shown for COc1cccc(NC(=O)Cn2c(=O)n(Cc3ccco3)c(=O)c3cc(OC)c(OC)cc32)c1 : -2%[46.1 µM] | . | -3%[46.1 µM] | -9% | . | . | ? | -1.8%
Shown for COc1ccc(CC(=O)Nc2cc(C)ccc2O)cc1OC : . | -10% | . | -25% | -5% | -1% | . | .
Shown for CC(Sc1nnnn1C)C(=O)NC1CCCc2ccccc21 (centres undefined) : 17%[46.1 µM] | 3% | 15%[46.1 µM] | 19% | 8% | 0% | . | .

Next entries follow:
The line under a structure holds: Marburg entry inh | RE007 growth inh | LASV entry inh | 2A StopGo | NS1 inh | SARS PLP yeast | Cruzain noTriton | Cruzain Triton
CC1=C(C(=O)NCc2ccccc2)C(c2cccs2)n2ncnc2N1 (centres undefined)
  -46% | 33% | ? | -10% | 0% | -6% | 9% | -2.4%
CCOC(CNC(=O)Cc1c(C)nc2c(-c3ccccc3)c(C)nn2c1C)OCC
  28%[46.1 µM] | -19% | -3%[46.1 µM] | -19% | . | 4% | . | .
Cc1nn(Cc2c(F)c(F)c(F)c(F)c2F)c(C)c1NC(=O)c1nn(C)c(C)c1Br
  9% | -3% | 4% | -17% | 13% | -1% | . | .
CC(=O)c1cccc(N(CC(=O)Nc2ccccc2C(=O)N2CCCC2)S(C)(=O)=O)c1
  . | 3% | . | 1% | 1% | -1% | . | .
COc1cccc(OC)c1C(=O)Nc1cccc(-c2cn3ccsc3n2)c1
  . | . | 0%[46.1 µM] | -2% | . | . | 0% | 0.2%
CC(NC(=O)c1ccc(CS(C)(=O)=O)cc1)c1ccc(-n2ccnc2)cc1 (centres undefined)
  9% | -1% | 0% | -1% | 1% | ? | . | .
COc1ccc(-n2cc(-c3ccccc3)c3c(NN4CCOCC4)ncnc32)cc1
  ? | 14% | ? | 0% | . | 11% | . | .
CCOC(=O)c1c(C)c(-c2ccccc2)n(CC(=O)NCc2cccc(OC)c2)c1C
  3%[46.1 µM] | . | . | -15% | . | . | 6% | -1.0%
CC(NC(=O)C12CC3CC(CC(O)(C3)C1)C2)c1ccccc1 (centres undefined)
  3%[46.1 µM] | -3% | -5%[46.1 µM] | -1% | 6% | 0% | . | .
Cc1ccc(NC(=O)C2Cc3ccccc3CN2C(=O)c2ccccc2)cc1Cl (centres undefined)
  ? | -12% | -17% | -28% | 10% | -16% | 4% | -6.9%
Cc1ccc(C2C(C#N)=C(N)SC(N)=C2C#N)o1
  2% | . | . | . | -99% | 7% | ? | -27%
CCOC(=O)c1nnc(-c2cccs2)nc1Oc1ccccc1C(=O)OC
  -1% | -8% | 13% | ? | 5% | -5% | -13% | -4.8%
Cc1ccc(-n2nc3c(c2NC(=O)c2ccc4c(c2)OCO4)CS(=O)(=O)C3)cc1
  . | 2% | . | -13% | -6% | 1% | . | .
O=C(NNC(=S)NC(=O)c1cccs1)c1cccnc1
  1%[46.1 µM] | -8% | . | 15% | . | 0% | . | .
Cc1ccccc1CSc1nc2ccccc2c(=O)[nH]1
  -15% | . | -15% | 6% | 9% | 7% | ? | -2.9%
CC(=O)c1ccc(OC(C)C)c(Cc2c(O)nc(N)[nH]c2=O)c1
  -7% | 31% | 9% | -18% | 14% | 12% | -3% | 1.9%
Cc1[nH]n(-c2ccccc2)c(=O)c1-c1ccc(Cl)cc1
  2%[46.1 µM] | -12% | 14% | -13% | -52% | 2% | -8% | 1.0%
COc1cc(CNCc2ccc(OC)c(OC)c2OC)cc(OC)c1
  ? | 12% | 4% | -29% | -8% | 5% | -4% | 6.1%
CCCc1cc(C(=O)Nc2ccccc2C(=O)OC)no1
  . | -9% | . | 14% | -16% | -2% | 10% | 3.1%
Cc1ccc(-c2nc(C(=O)O)cs2)cc1
  22%[46.1 µM] | 4% | -6% | 0% | . | 5% | . | .

The line under a structure holds: Marburg entry inh | RE007 growth inh | LASV entry inh | 2A StopGo | NS1 inh | SARS PLP yeast | Cruzain noTriton | Cruzain Triton
Cc1ccc(Nc2nnc(SCC(=O)Nc3ccccc3[N+](=O)[O-])s2)cc1
  25% | 0% | -10% | -12% | 16% | -5% | -2% | -7.1%
COc1ccc(-c2nnc(SCC(=O)NC3CCCCC3)o2)cc1
  2%[46.1 µM] | -4% | 0%[46.1 µM] | 11% | 0% | -2% | . | .
Cc1ccc2cc(CN(CC3CCCO3)C(=S)Nc3ccccc3)c(=O)[nH]c2c1 (centres undefined)
  ? | 19% | -2% | 28% | -4% | -1% | . | .
CC(C)OC(=O)CSc1nc2ncccc2[nH]1
  -18% | 4% | ? | 2% | 0% | -3% | -4% | 5.3%
Cc1ccc(C(O)CSc2nnc(-c3ccc4ccccc4c3)n2C)cc1 (centres undefined)
  0% | -2% | ? | -10% | -6% | -2% | . | .
Cc1ccc2c(c1)N(S(=O)(=O)c1ccc3c(c1)NC(=O)CC(=O)N3)CCO2
  . | -9% | -15%[46.1 µM] | ? | 23% | 0% | -4% | -2.4%
COCCn1c(=NC(=O)CSC(C)=O)sc2cc(F)ccc21
  75% | -15% | -11% | 0% | 5% | 8% | -3% | -4.0%
CCC(NC(=O)NCc1ccccc1)(C(F)(F)F)C(F)(F)F
  -3% | 8% | ? | -7% | -7% | -18% | -12% | -0.7%
O=C(CCc1nc2ccccc2c(=O)[nH]1)Nc1nc(-c2cccs2)cs1
  12%[46.1 µM] | 3% | -18% | -1% | . | 3% | . | .
CCCCN(C(=O)CCNC(=O)NC12CC3CC(CC(C3)C1)C2)c1c(N)n(CCC)c(=O)[nH]c1=O
  4% | 0% | 7%[46.1 µM] | 15% | . | 1% | . | .
Cc1sc(NC(=O)CSc2nnc(-c3ccccc3)o2)c(C#N)c1C
  ? | -4% | -22% | 74%[activator] | -3% | -7% | -3% | 1.0%
CCOC(=O)c1cnc2ccc(C(=O)OC)cc2c1Nc1ccc(C(=O)O)cc1
  ? | 5% | -25%[46.1 µM] | -2% | 5% | 0% | . | .
O=C(O)C1CCN(C(=O)c2cccc3ccccc23)CC1
  4%[46.1 µM] | 15% | -7%[46.1 µM] | 15% | 4% | 6% | . | .
CCn1cc(C(=O)O)c(=O)c2cc(F)c(N3CCN(C(=S)NC(=O)c4ccc(F)cc4)CC3)cc21
  -16% | -10% | 20% | 0% | -2% | -1% | . | .
O=C(Nc1cc2c3c(c1)CC(=O)N3CCC2)c1ccc(Cl)cc1
  16% | 5% | 9% | 16% | . | 3% | . | .
CC1=C(C(=O)Nc2ccc(C)cc2C)C(c2ccccc2F)n2nc(SCC(=O)c3ccc(C)cc3)nc2N1 (centres undefined)
  . | . | 19%[46.1 µM] | -6% | . | . | -6% | 6.3%
